CDC25B-CDK2 inh: primary biochemical HTRF screen for blockers of M-phase inducer phosphatase 2 binding to CDK2/cyclin A. AID 1259370, 2018. z-score (test concentration not listed). P30305+P24941. 94,000 tested, 0.72% active. HTRF CDC25B-CDK2/CyclinA binding, anti-His/anti-Flag; hits give high values;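 also: score is relative to mean and SD of negative controls; strong numbers were not always called active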
TAR Tat displ: TAR RNA-Tat peptide displacers, HIV-1, primary screen, biochemical, FRET, FAM/TAMRA-labeled Tat. AID 1259389, 2018. 100,000 tested, 0.6% active. z-score (concentration not given with the values). HIV-1 TAR RNA, Tat peptide displacement FRET; hits give high values;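 also: score is relative to mean and SD of negative controls; some compounds called inactive have numbers as strong as hits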
Active calls of the source: *; / = not tested or not shown.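 The calls were made as follows: active = z-score from 3 up in half or more of its runs; inactive = the rest.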

SMILES	CDC25B-CDK2 inh	TAR Tat displ
CCOC(=O)C(C#N)=C1SC2CS(=O)(=O)CC2S1 (centres undefined)	-1	/
O=C1N(c2ccc(-c3ccccc3)cc2)C(c2ccc(F)cc2)N2CCCN12 (centres undefined)	-1.1	0.86
O=C(Nc1ccc(Cl)cn1)C(Cc1ccccc1)N1Cc2ccccc2C1=O (centres undefined)	/	0.28
Cc1cc(C)c2c(=O)cc(C(=O)N(Cc3ccccc3Cl)C3CCS(=O)(=O)C3)oc2c1 (centres undefined)	0.13	-1.9
CN(NS(=O)(=O)c1ccc(C(F)(F)F)cc1)c1cnn(C)c(=O)c1Cl	-0.67	/
COC(=O)CN1C(=S)N(c2ccc(F)cc2)C(=O)C1CC(=O)Nc1ccc(F)cc1 (centres undefined)	-1.2	/
CCCN(CCC)CCCNC(=O)c1nn(C)c2c1CS(=O)(=O)c1ccccc1-2	-0.22	0.46
CC(C)(C)c1ccc(C(=O)N2CCN(c3oc(/C=C/c4ccccc4)nc3C#N)CC2)cc1	-1.2	-0.37
CC(=O)N1c2ccc(S(=O)(=O)N(C)Cc3ccco3)cc2CC1C (centres undefined)	/	0.93
CCCCNC(=O)C(NS(=O)(=O)c1cccs1)C(C)C (centres undefined)	/	0.75
COC(=O)CN1C(=O)CSc2ccc(S(=O)(=O)N3CCN(C4CCCC4)CC3)cc21	/	-0.36
OC(CN1CCN(c2ccc(F)cc2)CC1)c1ccc2c(c1)CCN2 (centres undefined)	-1.4	2.8
CC1CCCN(c2ccc3nc4ccccc4c(=O)n3n2)C1 (centres undefined)	5.3	-0.73
N#CCCN(Cc1cccnc1)C(=S)NC1CC2C=CC1C2 (centres undefined)	-0.73	/
O=C(CS(=O)(=O)c1ccc(F)cc1)Nc1nc(-c2ccccn2)cs1	/	1.9
COc1ccccc1C1=NOC(C(=O)N2CCCC2)C1 (centres undefined)	-0.26	0.67
Cc1ccc2nc3c(cc2c1)CCN3S(=O)(=O)c1ccccc1	-1.9	-1
COCn1c(-c2ccccc2)nc2ccccc21	-0.33	0.91
O=C(Nc1ccc(Cl)cc1)N1CC=C(c2c[nH]c3ccccc23)CC1	3.1	-12
COc1ccc(S(=O)(=O)Nc2ccc(N3CCCS3(=O)=O)cc2)cc1	/	0.46

Next part; it opens with the 4 that closed the last part.
SMILES	CDC25B-CDK2 inh	TAR Tat displ
Cc1ccc2nc3c(cc2c1)CCN3S(=O)(=O)c1ccccc1	-1.9	-1
COCn1c(-c2ccccc2)nc2ccccc21	-0.33	0.91
O=C(Nc1ccc(Cl)cc1)N1CC=C(c2c[nH]c3ccccc23)CC1	3.1	-12
COc1ccc(S(=O)(=O)Nc2ccc(N3CCCS3(=O)=O)cc2)cc1	/	0.46
CC1CCc2sc3ncnc(NCc4cccnc4)c3c2C1 (centres undefined)	0.64	/
C=CCN1C(=O)C(O)(C(C)C(=O)c2ccccc2)c2ccccc21 (centres undefined)	1.4	0.32
COCCN1C(=O)c2oc3cc(C)c(C)cc3c(=O)c2C1c1ccccc1F (centres undefined)	-2.8	-0.35
COc1ccc(Cl)cc1Nc1ncnc2onc(C)c12	/	1.1
C=CCN(c1nc2nc(C)cc(C)n2n1)S(=O)(=O)c1ccccc1	-0.9	-0.41
Cc1ccc(-n2cc(-c3ccccc3)c3c(NCc4ccccn4)ncnc32)cc1	/	1.2
CCOc1ccccc1-n1nnc(C(=O)O)c1C	0.84	0.04
COc1ccc(NS(=O)(=O)c2ccc(-c3cc(C)no3)s2)cc1OC	/	-0.28
CCOc1ccc(CCNc2c(-c3ccc(C(C)C)cc3)c(=O)c2=O)cc1OCC	/	2.3
CCOCc1cnc(C)nc1NCC(=O)c1c(C)n(C)c2ccc(OC)cc12	-0.37	/
COc1cscc1C(=O)O	-1.3	/
Cn1c(CNc2ccc(O)cc2)nc2ccccc21	2.3	-5.6
C[C@H]1COC2=C1C(=O)C(=O)c1c2ccc2c1CCCC2(C)C	/	2
COc1ccc2c(c1)c1nc(SC)n(C)c(=O)c1n2C	-0.63	1.8
Nc1nc(SCc2ccccc2Cl)n[nH]1	-0.76	/
C/C(=C/c1ccc([N+](=O)[O-])o1)C(=O)O	-0.38	/
Cc1ccc(S(=O)(=O)Nc2ccc(O)c3cccnc23)cc1	8.3*	0.05
CC1(C)CC(=O)C2=C(C1)OC1=C(C(=O)CC(C)(C)C1)C2c1ccc2c(c1)OCO2	-0.74	/
CCN(CC)CCCn1c(C)c(C)c2c1ncn1nc(-c3ccncc3)nc21	0.19	2.7
Cc1cccc(C(=O)N2CCN(c3cc(=O)n4nc(-c5ccccc5C)sc4n3)CC2)c1	/	-0.15
Cc1cc2c(cc3c(=O)n(CC(=O)N4CCN(c5ccccc5)CC4)ncn32)s1	-1.8	/
COCCCN1C(=O)c2ccc3c(=O)n4c5ccc(Cl)cc5nc4c4ccc(c2c34)C1=O	-2.2	0.05
O=C(CN1C(=O)C(=O)c2ccccc21)Nc1ccccc1F	-0.82	-2
O=C(Cn1sc2ccccc2c1=O)NCc1cccc(Br)c1	-1.8	2.7
CC1(C)Cc2nc3sc4c(=O)n(Cc5ccc(Cl)cc5)cnc4c3cc2CO1	/	-0.52
COc1ccc(C2C3C(=O)N(Cc4ccccc4)C(=O)C3ON2c2ccccc2)cc1 (centres undefined)	0.41	/
Cn1c(=O)c2[nH]c(NCc3ccco3)nc2n(C)c1=O	-0.2	0.36
CCSc1nnc2c(n1)OC(c1ccc(OCC(=O)O)cc1)Nc1ccccc1-2 (centres undefined)	-0.11	-0.28
CC(C)(C)c1csc(S(=O)(=O)Cc2c(F)cccc2Cl)n1	-2.1	/
CCOC(=O)c1c(C)n(C)c2ccc(OCC(O)Cn3nnc4ccccc43)cc12 (centres undefined)	-2.9	-0.18
Cn1ncc2c(NCc3cccc(Cl)c3)ncnc21	/	0.82
O=C(CN1C(=O)CSc2ccc(S(=O)(=O)N3CCCC3)cc21)NC1CCCc2ccccc21 (centres undefined)	/	0.14
Cc1nc2sccn2c(=O)c1S(=O)(=O)Nc1ccc(F)c(Cl)c1	/	-0.66
Cc1cc([N+](=O)[O-])nn1CC(=O)Nc1cnc2ccccc2c1	0.75	0.4
Cc1nc(-c2ccc(C)c(S(=O)(=O)Nc3cccc(Cl)c3C)c2)cs1	/	0.38
Cc1ccccc1CSc1nc(-c2cccs2)nc2c1c(=O)n(C)c(=O)n2C	-0.74	/
CCN1CCC(N(Cc2ccco2)C(=O)Nc2ccc3c(c2)OCCO3)CC1	/	1.2
CCc1ccc(S(=O)(=O)NCCc2csc(-c3cccc(F)c3)n2)s1	/	0.81
Cc1cc(NCCN(C)C)n2nc(C)c(-c3ccc(F)cc3)c2n1	-1.2	0.22
CCn1c(C(=O)NC2CC2)cc2sc(Cl)cc21	-0.79	/

2 entries from above, comma-delimited:
SMILES,CDC25B-CDK2 inh,TAR Tat displ
CCc1ccc(S(=O)(=O)NCCc2csc(-c3cccc(F)c3)n2)s1,/,0.81
Cc1cc(NCCN(C)C)n2nc(C)c(-c3ccc(F)cc3)c2n1,-1.2,0.22

New compounds follow:
SMILES	CDC25B-CDK2 inh	TAR Tat displ
COc1ccc(C2CC(=O)C3=C(C2)NC(C)=C(C#N)C3c2cc3c(cc2Cl)OCO3)cc1 (centres undefined)	-0.42	0.82
CC1CCC(c2nnc(-c3ccccc3Cl)o2)CC1 (centres undefined)	-0.76	-0.8
O=C(Oc1ccc2[nH]cc(CCN3C(=O)c4ccccc4C3=O)c2c1)c1ccco1	-1.6	/
CCCCN(Cc1cc2ccccc2[nH]c1=O)S(C)(=O)=O	-1.2	0.9
CCc1nn2c(=O)cc(COC(=O)c3cccc(Cl)c3)nc2s1	/	-0.27
Cc1ccc(NS(=O)(=O)c2cc3[nH]c(=O)[nH]c3cc2C)cc1	-1.5	0.14
O=C(/C(=C(\F)C(F)(F)C(F)(F)F)C(F)(F)F)N1CCCCC1	3.5	/
Cc1cccc(NC(c2cccnc2)c2ccc3cccnc3c2O)n1 (centres undefined)	-0.68	-0.89
O=S(=O)(c1ccc(Cl)cc1)N1CCN(c2ccc(F)cc2)CC1	-0.53	/
COc1ccc(OCCn2c(S(=O)(=O)Cc3ccccc3)nc3ccccc32)cc1	-0.63	0.68
Cc1nn(C)c(C)c1CNS(=O)(=O)c1ccc(CC(C)C)cc1	/	-1
Cc1ccc(C2=NS(=O)(=O)N(C)C(C(=O)N3CCN(C)CC3)=C2)cc1	-2.5	2.6
Cc1cc(C)c(S(=O)(=O)NCCc2sc3nc(-c4ccc(F)cc4)nn3c2C)c(C)c1	/	0.84
N#Cc1c(N2CCOCC2)cccc1-n1ccnc1	0.05	/
COc1ccccc1Nc1n[nH]c(=S)n1-c1ccccc1OC	-0.33	/
Oc1ccccc1C1=NN2C(C1)c1ccccc1OC2c1cccnc1 (centres undefined)	-0.31	-0.52
N#Cc1nc(/C=C/c2ccc(F)cc2)oc1N1CCc2ccccc2C1	-1.9	-0.92
CCC(=O)N1c2ccc(S(=O)(=O)CCC(=O)Nc3cc(F)ccc3F)cc2CC1C (centres undefined)	/	0.83
O=C(NCCCN1CCCC1)c1cc2ccc3cccnc3c2[nH]1	/	0.73
CCCSc1nc2c(c(=O)[nH]1)C(c1cc(Br)ccc1OC)CC(=O)N2 (centres undefined)	0.23	1.2
O=C(c1ccc(Cn2c(=O)c3cccn3c3cccnc32)cc1)N1CCCC1	/	0.19
CN(C)/C=C/C(=O)c1cc(Cl)sc1Cl	0.24	/
O=C(CSc1nccn1Cc1ccco1)Nc1nccs1	/	0.84
O=C(CSc1ccc(Cl)cc1)N1CCN(c2ncc(C(F)(F)F)cc2Cl)CC1	-0.42	/
O=C1CC(c2ccc(Cl)cc2)Sc2nc(-c3ccccc3)nn21 (centres undefined)	-1.4	2.3
CC1CCN(c2ccc3cc(S(=O)(=O)N4CCCCC4)ccc3n2)CC1	/	2.1
CC(=O)NCC(=O)N(c1c(C)n(C)n(-c2ccccc2)c1=O)C1(C(=O)NC2CCCC2)CCCCC1	-0.5	1.8
COc1cccc(-c2noc3ncnc(NC4CCCCC4)c23)c1	/	1.7
CC(C)C1=CC2=CCC3[C@](C)(CCC[C@]3(C)C(=O)O)C2CC1 (some centres undefined)	/	2.9
C#CCOC(=O)CCCN1C(=O)c2cccc3cccc(c23)C1=O	-1.4	2.2
CCOC(=O)CSc1nnc(CSc2nc3sc4c(c3c(=O)[nH]2)CCC4)n1-c1ccccc1	-0.45	/
COc1ccc(-c2n[nH]c3c2C(c2ccc(O)cc2)N(C)C3=O)cc1 (centres undefined)	-1.1	-0.3
CCc1ccc(-c2nc(CSCC(=O)O)c(C)o2)cc1	/	0.52
CCCCCn1cnc2sc3c(c2c1=O)CCC(C)C3 (centres undefined)	-0.98	/
CCN(CC)C(=O)c1ccc(-c2cccs2)s1	-1.4	/
CC1CCC(C(=O)Nc2cc3c(cc2N2CCOCC2)n(C)c(=O)n3C)CC1 (centres undefined)	-0.85	-0.12
CC1(C)Cc2ccccc2-c2nc(NCCCO)[nH]c(=O)c21	-0.66	/
Cc1cc(-c2ccc(S(=O)(=O)Nc3cccc(CN4CCCC4)c3)s2)n[nH]1	/	-0.15
CCNC(=O)C1Cc2cc(S(=O)(=O)N(CC)CC)ccc2N1C(C)=O (centres undefined)	/	2.1
COc1ccc(NC(=O)C2C3C=CC(O3)C2C(=O)O)c(OC)c1 (centres undefined)	-0.97	-1

Part of the list above, comma-delimited:
compound,CDC25B-CDK2 inh,TAR Tat displ
CCCSc1nc2c(c(=O)[nH]1)C(c1cc(Br)ccc1OC)CC(=O)N2 (centres undefined),0.23,1.2
Oc1ccccc1C1=NN2C(C1)c1ccccc1OC2c1cccnc1 (centres undefined),-0.31,-0.52

(cont.)
SMILES	CDC25B-CDK2 inh	TAR Tat displ
COc1ccc(Br)cc1C1Nc2ccc(C)cc2-c2cc(C)nn21 (centres undefined)	-1.9	2.8
O=C1OC(c2ccccc2)C(O)(c2ccccc2)C12CCCCC2 (centres undefined)	1.4	/
O=C(O)C1C2C=CC3(CN(Cc4ccccc4)C(=O)C13)O2 (centres undefined)	-1.4	0.47
COc1ccc(S(=O)(=O)Nc2ccc3c(c2)N(S(C)(=O)=O)CCC3)cc1	/	1.4
O=C(Cn1c(SCCOc2ccccc2Cl)nc2ccccc21)NC1CC1	0.15	-0.01
O=C(NC(Nc1ccccn1)(C(F)(F)F)C(F)(F)F)c1cccnc1	-2.5	/
COc1ccc(Cc2nn3c(C4COc5ccccc5O4)nnc3s2)cc1 (centres undefined)	1.2	0.76
CCC(=O)Nc1c(-c2ccc(C)cc2)nc2cc(C)ccn12	-1.4	/
Cc1ccc(NC(=O)CCc2nnc3ccc(N4CCCC4)nn23)nc1	/	1.3
COCc1cc(C)nc2sc3c(=O)n(-c4ccc(C(=O)OCC(C)C)cc4)nnc3c12	-0.57	0.77
COCCN1C(=O)C(=O)/C(=C(/O)c2ccccc2)C1c1ccc(C(C)C)cc1 (centres undefined)	-2.1	2.6
CCOC(=O)Cc1csc2nc(-c3ccc(C)cc3)c(NC3CCCCC3)n12	-0.82	/
CCOc1cc(C2c3c(oc4ccc(F)cc4c3=O)C(=O)N2Cc2ccc3c(c2)OCO3)ccc1O (centres undefined)	0.48	1.4

3 entries from above, with values under each structure.
Every second line gives: CDC25B-CDK2 inh | TAR Tat displ
CCOc1cc(C2c3c(oc4ccc(F)cc4c3=O)C(=O)N2Cc2ccc3c(c2)OCO3)ccc1O (centres undefined)
 : 0.48 | 1.4
Cc1nn(C)c(C)c1CNS(=O)(=O)c1ccc(CC(C)C)cc1
 : / | -1
O=C(Oc1ccc2[nH]cc(CCN3C(=O)c4ccccc4C3=O)c2c1)c1ccco1
 : -1.6 | /

Bioassay records: PubChem BioAssay, Center for Chemical Genomics, University of Michigan
